Screening data deposited in PubChem by National Center for Advancing Translational Sciences (NCATS).
VACV mCherry inh: inhibitors of vaccinia virus infection (mCherry reporter signal) | Vaccinia virus mCherry reporter infection, fluorescence; about a quarter of the inactives have no number | Potency, µM (titrated, usually from 36.5 µM), for the others: at the highest dose activity change, negative = inhibition, usual class: inhibitors | 310,000 compounds, 0.63% hits; active = well fitted inhibition curve with a large enough effect; inconclusive = small, poorly fitted or top-dose-only effect; inactive = no such curve, though single readings can be large or run the other way; tested in A549 cells; note: nearly all actives have a fitted effect of over 35% in size; inactives centre near -10
Vaccinia Venus: inhibitors of vaccinia virus (Venus reporter); Vaccinia virus Venus reporter expression, fluorescence; Potency, µM (series often up to 36.5 µM), for inactives: at the top dose activity change, negative = inhibition, hits mostly inhibitors; 330,000 compounds, 0.46% hits; active means well fitted inhibition curve with a large enough effect; inconclusive means small, poorly fitted or top-dose-only effect; inactive means no such curve, though single readings can be large or run the other way; tested in A549 cells; note: nearly all actives have a fitted effect of over 30% in size; inactives centre near -10
* marks the source's active call; other numbers are inactive results; i = inactive; u = inconclusive; x = not tested or not shown; & = joins results of further samples; [ ] = remark or other dose. % is set by controls: 0 for no effect and ±100 for the full control effect; potency is the fitted concentration of half-maximal effect. Rows are unselected (roughly 0.86% active in at least one column).

Structure,VACV mCherry inh,Vaccinia Venus
Cc1cc(C)cc(N2C(=O)CC(Cn3nc(C)cc3C)C2=O)c1 (configuration not stated),-14%,-5%
CC(C)CCC[C@@H](C)[C@H]1CC[C@H]2[C@@H]3C(=O)C=C4C[C@@H](O)CC[C@]4(C)[C@H]3CC[C@]12C,-6%,-10%
CCOC(=O)C(=Cc1ccc(Br)cc1)C(=O)OCC,u,14µM*
O=C(Oc1ccc(=O)[nH]n1)c1ccccc1,-2%,-17%
COC1OCC(O)C(NC(=O)N(C)N=O)C1O (configuration not stated),-7%,1%
COc1cccc(C(=O)OCC(=O)NCc2ccc3c(c2)OCO3)c1OC,-12%,-14%
COc1ccc(/C=N/n2c(=O)[nH]c3c([nH]c4ccc(C)cc43)c2=O)cc1CN1CCOCC1,i,-17%
CCC(Sc1nc2ccsc2c(=O)n1Cc1ccc(C(=O)O)cc1)C(=O)Nc1cc(Cl)ccc1C (configuration not stated),-3%,-5%
COc1ccc(OC)c(NC(=O)N2C[C@H]3C[C@@H](C2)c2cccc(=O)n2C3)c1,-10%,-5%
COc1cc(/C=C(\C#N)c2nn(CCO)c(N)c2C#N)cc(OC)c1OC,i,-2%
CCOc1ccc(C(=O)N2CCc3cc(OC)c(OC)cc3C2COc2ccc3c(C)cc(=O)oc3c2)cc1OCC (configuration not stated),-17%,-10%
C[C@@]12CC[C@H]3OC(=O)C=C3C1CC[C@@]13CC(CCC12)[C@](CO)(O[C@H]1O[C@H](CO)[C@@H](O)[C@H](O)[C@H]1O)C3 (some centres not stated),-3%,0%
COc1ccc(-c2cc(C(=O)Nc3ccc(C(N)=O)cc3)c3ccccc3n2)cc1OC,0%,11%
C[C@H]1CN([C@@H](C)CO)C(=O)CCCn2nncc2CO[C@H]1CN(C)C(=O)Nc1ccccc1,-31%,-19%
CN(CC(=O)Nc1ccccc1Cl)C(=O)c1ccccc1SCC(=O)N1CCCC1,-17%,-11%
COc1ccc(NC(=O)C2CCCN(S(=O)(=O)c3cnc[nH]3)C2)cc1 (configuration not stated),i,-1%
O=C(O)c1nn2cc(CCO)cnc2c1Cl,-7%,-4%
CN(C(=O)COC(=O)c1ccc(Br)o1)c1c(N)n(Cc2ccccc2)c(=O)[nH]c1=O,0%,0%
CS(=O)(=O)c1ccc(Cl)c(NC(=O)COC(=O)CNC(=O)c2ccccc2)c1,2%,-2%
CCCCNC(=O)c1cccc2c(=O)c(C)c(-c3ccccc3)oc12,i,-18%

Quoted at random: four records from the list
Structure,VACV mCherry inh,Vaccinia Venus
CCOc1ccc(C(=O)N2CCc3cc(OC)c(OC)cc3C2COc2ccc3c(C)cc(=O)oc3c2)cc1OCC (configuration not stated),-17%,-10%
C[C@@]12CC[C@H]3OC(=O)C=C3C1CC[C@@]13CC(CCC12)[C@](CO)(O[C@H]1O[C@H](CO)[C@@H](O)[C@H](O)[C@H]1O)C3 (some centres not stated),-3%,0%
O=C(Oc1ccc(=O)[nH]n1)c1ccccc1,-2%,-17%
CC(C)CCC[C@@H](C)[C@H]1CC[C@H]2[C@@H]3C(=O)C=C4C[C@@H](O)CC[C@]4(C)[C@H]3CC[C@]12C,-6%,-10%

Other compounds follow.
Structure,VACV mCherry inh,Vaccinia Venus
O=C(CSc1ccc(F)cc1)N1CCN(S(=O)(=O)c2ccccc2)CC1,-6%,-16%
CC(Sc1nnc(-c2ccccc2)c(-c2ccccc2)n1)C(=O)Nc1ncc(Cl)cc1Cl (configuration not stated),i,0%
CCCN1C(C(=O)c2ccccc2)=C(OC(=O)c2ccc(F)cc2)c2ccccc2S1(=O)=O,u,-25%
COC(=O)c1scc(-c2ccc(C)cc2)c1S(=O)(=O)Nc1ccc(F)cc1F,-2%,-3%
C/C(=N\NC(=O)c1ccccc1-n1cccc1)c1ccccn1,u,u
O=C(O)c1cc(N/N=C/C(Cl)=C/c2ccccc2)ccc1Cl,0%,-6%
CCn1cc(C2=NOC(C(=O)Nc3cc(C)nn3-c3ccccc3)C2)c(C)n1 (configuration not stated),i,-12%
CCOC(=O)CCC(=O)N1CCNC(=O)C1,i,2%
Cc1cccc(OCC(=O)Nc2ccc(NC(=O)c3ccco3)cc2)c1,u,-21%
CCO[C@H]1OC(C(=O)N2CCOCC2)=C[C@@H](c2ccccc2)[C@@H]1CCCO,-12%,-2%
CCCCn1c(N)c(N(CCC(C)C)C(=O)C2CC(=O)N(c3ccc(OC)cc3OC)C2)c(=O)[nH]c1=O (configuration not stated),-14%,1%
COc1ccc(C(=O)OCC(=O)Nc2ccc(F)cc2F)cc1OC,-12%,-5%
O=C(COc1ccccc1O)Nc1ccc(Cl)cc1,u,u
CNC(=O)O/N=C/c1nn(C(=O)C(C)(C)C)cc1Br,-11%,-8%
Cc1cc(C)[n+](-c2ccc(Oc3ccccc3)c(S(=O)(=O)[O-])c2)[nH]1,-13%,0%
CCCOc1ccc(N2C(=O)CC(N(Cc3ccc(OC)cc3)C(=S)Nc3ccccc3)C2=O)cc1 (configuration not stated),-21%,u
CN(C)c1ccc(CC(=O)N2CCCC(c3cc(C(=O)Nc4ccc(C(C)(C)C)cc4)no3)C2)cc1 (configuration not stated),-15%,u
Nc1c(-c2nc(-c3cccs3)no2)nnn1-c1ccccc1Cl,-7%[7.34 µM],-5%[7.34 µM]
Cc1c(N=Cc2cccnc2)c(=O)n(-c2ccccc2)n1C,x,-6%
CCNc1ccc(P(=S)(N(C)C)N(C)C)cc1,-9%,-6%
CC1CC(NC2=NCCS2)CC(C)(C)C1 (configuration not stated),i,-24%
CC[N+](CC)(CC)C/C=C/CN1CCCCC1,i,-14%
CC1(C)NC(C)(C)/C(=C\c2cccs2)C(=O)C1=O,u,-21%
O=C(CSc1ncn[nH]1)NC1CC2CCC1C2 (configuration not stated),x,-12%
COCCn1nnnc1C(c1ccccc1)N1CCN(Cc2ccc3c(c2)OCO3)CC1 (configuration not stated),x,-21%
Cc1ccc(C(=O)OC(C)C(=O)Nc2ccc(S(N)(=O)=O)cc2)cc1S(=O)(=O)N1CCOCC1 (configuration not stated),-10%,-10%
Cc1ccc(Cl)cc1NC(=O)Nc1cn(CC(C)C)c(=O)c2ccccc12,-11%,14%
CCc1ccc2[nH]c(O)c(N=NC3=NC(=O)CS3)c2c1,-8%,-11%
CCCCCN(C(=O)CCC(=O)OCCOc1ccccc1)c1c(N)n(CCCC)c(=O)[nH]c1=O,i,-11%
Cc1nn(Cc2ccccc2)c(C)c1C(=O)NCCN1C(=O)S/C(=C\c2ccccc2)C1=O,-7%,-4%
C=CCNC(=O)C1CCN(S(=O)(=O)CC)CC1,-25%,-4%
Cc1ccc(S(=O)(=O)Nc2nc(C)cc(NN)n2)cc1,-8%,3%
COc1ccccc1Oc1ccc(S(=O)(=O)N2CCN(C)CC2)cc1,-9%,-7%
CCn1c(N2CCN(C(=O)c3ccco3)CC2)nc2ccccc21,-11%,-8%
CC(C)c1ccc(CN2CCC2(C)C(=O)Nc2cnc3ccccc3c2)cc1 (configuration not stated),i,-11%
CC(O)c1nc2ccccc2n1CC(=O)N1CCN(c2ccccc2)CC1 (configuration not stated),-12%,-7%
COC(=O)c1ccccc1NC(=O)CCn1c(=O)c2cccn2c2cccnc21,-13%,-17%
Cc1ccc(C(=O)N2C3=C(CCCC3)C(=O)NC23CCCCC3)cc1,0%,-7%
COC(=O)c1ccccc1NCC(=O)c1ccc(OC)cc1,i,-10%
CCOC(=O)CSC1=N/C(=C\c2ccc(OC)c(OC)c2)C(=O)N1C,i,-10%
CCOC(=O)c1c(NC(=O)CSc2nnc(-c3ccc(OC)cc3)o2)sc2c1CCC2,-7%,-4%
Cc1cccc(C)c1NC(=O)Cn1cc(C(=O)C2CC2)c2ccccc21,-16%,-9%
O=C1NC(c2cc3ccccc3nc2Cl)Nc2ccccc21 (configuration not stated),-14%,-11%
C=CCn1c(COc2ccccc2F)nnc1SCC(=O)NC(=O)NCc1ccco1,0%,-8%
O=C1C=C(C2OC(CO)C(O)C2O)C(=O)N1 (configuration not stated),-4%,1%
COc1ccc(/C=N/NC(=O)Cc2n[nH]c(=O)[nH]c2=O)cc1,i,2%
Cc1cc(CN2C(=O)c3ccccc3C2=O)cc(N2CCOCC2)c1,i,-15%
C#CCOCCOCCOCCNc1nc(N2CCN(C(=O)C([C@@H](C)CC)n3cc(C(N)Cc4ccc(O)cc4)nn3)CC2)nc(N2CCN(C(=O)[C@H](CCC(=O)O)n3cc(C(N)CC(C)C)nn3)CC2)n1 (some centres not stated),i,-4%
C/C(=N\Nc1ncc(Cl)cc1Cl)c1ccc(S(=O)(=O)NCc2ccco2)cc1,-14%,u
CCc1nc(SCC(=O)c2ccc(C)c(C)c2)n[nH]1,-8%,-3%
CCn1cnc2sc(C(=O)Oc3cccc(C)c3)c(C)c2c1=O,i,-8%
CC(C)(C)c1ccc(S(=O)(=O)N2CCN(C(=O)c3cc(-c4ccc(Br)cc4)n[nH]3)CC2)cc1,-12%,-20%
Oc1cccnc1SCc1ccccc1,i,-19%
COC(=O)c1ccc(/C=C/c2c(-c3ccc(OC)cc3)oc3ccccc23)cc1,u,u
CC(OC(=O)c1ncc(Cl)c(Cl)c1Cl)C(=O)NC1(C#N)CCCCC1 (configuration not stated),-7%,-2%
CCc1ccccc1NC(=O)Cn1c(SCc2ccc(F)cc2)nc2ccncc21,-27%,-11%
O=C(NCc1ccccc1Cl)C1CCCN(S(=O)(=O)c2cccc3nsnc23)C1 (configuration not stated),u,-6%&-13%
CCCCCCc1cc2cc(-c3nnc(-c4ccccc4O)o3)c(=O)oc2cc1O,-8%,-3%
CCc1ccc(OCCNC(=O)c2cccs2)cc1,-12%,-19%
CC(C)(C)NC(=O)CSc1nc2scc(-c3ccccc3)c2c(=O)[nH]1,16%,2%

(next part)
Structure,VACV mCherry inh,Vaccinia Venus
O=C1O/C(=C/c2ccccc2)N=C1c1ccccc1,-8%,-7%
C=C1CCN(Cc2ccccc2)S(=O)(=O)c2ccccc21,i,-8%
Cc1ccc(S(=O)(=O)NCCC(=O)NNC(=O)c2ccccc2O)cc1C,-27%,-21%
CC(C)c1nc2n(n1)C1(CCCCC1)[C@@H]1CCCC[C@@H]1N2,-15%,12%
CCOC(=O)/C(=C/C=C/c1ccccc1)NC(=O)c1ccccc1,-11%,8%
COc1ccc(NC(=O)CSc2cc(-c3ccccc3)nc(C)n2)cc1,-9%,-6%
CC1(C)CC(=O)C(CO)=C(c2cccc3ccccc23)C1=O,-1%,-13%
CCCN1CCN(C(=O)c2ccc3nc(CC)c(CC)nc3c2)CC1,-12%,-1%
Cc1c(NC(=O)c2ccc(F)c(S(=O)(=O)N3CCOCC3)c2)c(=O)n(-c2ccccc2)n1C,-22%,-15%
CCc1cccc2c(=O)c(C(=O)NCCCOC)c[nH]c12,-5%,-3%
COCCNC(=O)c1ccc2c(c1)N(Cc1cc(C)ccc1C)C(=O)c1ccccc1S2=O (configuration not stated),-6%,-3%
N#Cc1cc2sc3nnc(-c4ccncc4)n3c2cc1C#N,-25%,u
Nc1[nH]nc2c1NN(c1ccc(Cl)cc1Cl)N2,-10%,-13%
CN1CCN(c2ncnc3c2ncn3[C@H]2CN(Cc3cccnc3)C[C@@H](CO)O2)CC1,-9%,-5%
CCCCNC(=O)c1nc(C2CCN(S(=O)(=O)c3ccccc3)CC2)oc1-c1cccc(C(F)(F)F)c1,9%,-1%
COc1ccc(C(=O)Nc2ccc(S(=O)(=O)N3CCOCC3)cc2)cc1OC,-3%,-11%
O=C(NC1CC(=O)N(c2ccc(Cl)cc2)C1)C1CCCC1 (configuration not stated),-6%,-6%
CCOC(=O)c1c(NC(=O)CSc2nnc(-c3ccncc3)n2Cc2ccco2)sc(C)c1C,-25%,-15%
Cc1oc(-c2cc3c(cc2Cl)OCO3)nc1CN1CCCC(C(=O)N2CCOCC2)C1 (configuration not stated),i,-16%
N/C(=N\OC(=O)COc1ccc([N+](=O)[O-])cc1)c1ccncc1,6%,-4%
O=[N+]([O-])c1ccc2nc(-c3ccc(Cl)cc3)n(OCc3ccccc3)c2c1,u,u
CC(=O)N(CC(=O)O)c1ccccc1C(=O)O,x,-6%

Ordered by count of non-hydrogen atoms (falling): some entries from above
Structure,VACV mCherry inh,Vaccinia Venus
CCOC(=O)CSC1=N/C(=C\c2ccc(OC)c(OC)c2)C(=O)N1C,i,-10%
O=C(O)c1cc(N/N=C/C(Cl)=C/c2ccccc2)ccc1Cl,0%,-6%
CC(C)c1nc2n(n1)C1(CCCCC1)[C@@H]1CCCC[C@@H]1N2,-15%,12%
O=C(O)c1nn2cc(CCO)cnc2c1Cl,-7%,-4%

A stretch of the results above, as a working copy:
Structure,VACV mCherry inh,Vaccinia Venus
CN1CCN(c2ncnc3c2ncn3[C@H]2CN(Cc3cccnc3)C[C@@H](CO)O2)CC1,-9%,-5%
CCCCNC(=O)c1nc(C2CCN(S(=O)(=O)c3ccccc3)CC2)oc1-c1cccc(C(F)(F)F)c1,9%,-1%
